MLL AF4-AF9 inh = inhibitors of human MLL-AF4/AF9 interaction; AlphaScreen, biotin-AF4 peptide binding to FLAG-AF9; inhibition, % at 10 µM; 0.47% of 350,000 active; AID 651704;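 active means every replicate reaching a set inhibition limit, whatever the replicate mean, cut at about 25% in these data; inconclusive means mean inhibition reaches that limit but some replicates miss it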;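 further: 0% = plate neutral control median and 100% = total signal loss; the record names both 10 and 1 µM as test concentration; the first replicate is given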
Target sequence (P42568 whole entry, looked up): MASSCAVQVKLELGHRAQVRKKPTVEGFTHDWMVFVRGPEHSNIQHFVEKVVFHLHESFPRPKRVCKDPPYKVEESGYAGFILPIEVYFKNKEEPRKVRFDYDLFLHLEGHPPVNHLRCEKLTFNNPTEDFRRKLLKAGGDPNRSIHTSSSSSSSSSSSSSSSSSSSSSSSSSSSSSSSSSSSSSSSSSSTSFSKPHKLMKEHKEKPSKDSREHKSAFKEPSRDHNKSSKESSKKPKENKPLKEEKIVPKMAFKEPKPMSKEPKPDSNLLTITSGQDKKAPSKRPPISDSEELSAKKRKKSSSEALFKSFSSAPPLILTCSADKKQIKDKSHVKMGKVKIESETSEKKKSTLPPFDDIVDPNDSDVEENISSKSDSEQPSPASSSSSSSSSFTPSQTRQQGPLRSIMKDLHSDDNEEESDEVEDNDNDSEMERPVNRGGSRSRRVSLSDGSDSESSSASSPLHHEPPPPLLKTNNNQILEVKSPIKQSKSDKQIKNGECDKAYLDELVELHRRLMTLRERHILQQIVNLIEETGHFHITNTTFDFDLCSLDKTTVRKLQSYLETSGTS
Calb FLC = C. albicans growth modulation with fluconazole. 0.57% of 300,000 active. C. albicans CaCi-2 (fluconazole-resistant clinical isolate) + fluconazole, Alamar Blue growth, 48 h. growth inhibition, % (concentration not given with the values);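 active means most replicates above 75%; inconclusive means exactly half above 75%; inactive means most below 75%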;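 further: all wells also contain fluconazole at 8 µg/ml as a sub-toxic cotreatment; 0% = median of DMSO wells and 100% = median of geldanamycin control wells; wells of about 8 µL received 7.5 nL stock; the first replicate is given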
Beta apoptosis = beta cell apoptosis inhibition | INS-1E cytokine-induced death, ATP luminescence, 48 h; percent of positive-control rescue, neutral wells zero | protection from apoptosis, % (test concentration not listed) | 0.8% of 300,000 active | AID 435005;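 active means all replicates at 75% or more, or half of them and the mean; inconclusive means half reach 75% but not the mean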;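 further: 0% = cytokine-treated negative control wells and 100% = positive control rescue; higher means more ATP so stronger rescue from cytokine killing; wells of about 40 µL received 100 nL stock; the first replicate is given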
A1 inh = inhibitors of the anti-apoptotic protein A1, read as caspase activation; MEF A1-2A-BIM cells, Caspase-Glo 3/7 luminescence, 3 h; percent of clofoctol response, vehicle zero; caspase activation, % (test concentration not listed); 0.066% of 330,000 active; AID 2462;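 active means over half of replicate activation scores above 10%, or exactly half above 10 with the replicate mean above 10; inconclusive means replicate mean below 10 yet half the replicates above 10; inactive means over half of replicates below 10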;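 further: wells of about 30 µL received 50 nL stock; many hits fall short of the cut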
Ecoli rRNA inh = selective bacterial rRNA inhibition in E. coli | 1.6% of 350,000 active | AID 720706 | GFP signal change (wild-type ribosome), % (concentration not given with the values) | E. coli WT GFP vs humanized-ribosome RFP mutants, fluorescence, 24 h; stronger effect = lower value; DMSO median 0, no signal -100;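 active means significant combined selectivity score with lowered wild-type GFP, culture density cut under 30%, mutant RFP and density less affected; inactive means any of these conditions unmet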; further: one replicate is shown; some compounds called inactive have numbers as strong as hits
T cruzi repl = blocks replication of Trypanosoma cruzi | T. cruzi beta-gal in NIH3T3, luminescence, 90 h | inhibition, % (no concentration beside the values) | 1.4% of 300,000 active | AID 1885;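 active means mean inhibition across valid replicates above about 55%, limit read from the data; inconclusive means mean below that limit but half or more replicates reach it; inactive means mean below it, under half of replicates reach it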;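 further: signal also drops with host cell toxicity which is not excluded here; 0% = plate median of DMSO wells and 100% = zero luminescence signal; higher percent means less beta-gal luminescence so fewer parasites; stock transfer was 50 nL into about 50 µL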
Vif A3G = HIV-1 Vif–A3G interaction blockers – biochemical, TR-FRET, GST-Vif 1-94, biotin-A3G peptide, dose response retest, primary screen (AID 1117319) | inhibition, %; hits with a dose series show IC50 in µM | 0.57% of 260,000 active | TR-FRET GST-Vif / biotin-A3G peptide binding; higher % means a stronger effect; test concentration not given here; strong numbers were not always called active;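 active means above the screen mean plus three standard deviations and confirmed in dose response; inconclusive means results disagree or hit not tested in dose response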;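 further: Vif residues 1-94 fused to GST binding biotinylated APOBEC3G peptide 110-148; 0% = full assay without inhibitor and 100% = GST in place of GST-Vif; retest series ran down from 100 µM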
RanGTP-Imp inh = disruptors of Ran-importin-beta complex formation – biochemical, FRET, CFP-Ran, YFP-importin-beta, homogeneous, primary screen; cell-free CFP-Ran/YFP-importin-beta FRET ratio; 1.1% of 300,000 active; inhibition, % (concentration not given with the values);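 active means most replicates above 15%; inconclusive means exactly half above 15%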;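 further: 0% = DMSO wells and 100% = Ran loaded with GDP instead of GTP; wells of about 40 µL received 100 nL stock; the first replicate is given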
Ecoli rRNA inh OD600 = recorded beside Ecoli rRNA inh, whose call it bears; OD600 change, %; measured here: OD600 growth;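 optical density of the mix in the first replicate; 0 = DMSO median and -100 = no signal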
Ecoli rRNA inh RFP = recorded beside Ecoli rRNA inh, whose call it bears; RFP signal change, %; measured here: RFP humanized mutant strains;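 first replicate; 0 = DMSO median and -100 = no signal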
* hit, by the source's call; ? = inconclusive; nt = no result given; & = joins results of further samples. Only part of the results is shown (hit frequency here may not be typical).

SMILES	MLL AF4-AF9 inh	Calb FLC	Beta apoptosis	A1 inh	Ecoli rRNA inh	Ecoli rRNA inh OD600	Ecoli rRNA inh RFP	T cruzi repl	Vif A3G	RanGTP-Imp inh
COC(=O)N(c1ccccc1)P1(=S)OCCO1	nt	-6	-19	0.4	nt	nt	nt	0	18%	2.2
CC[C@H]1CC2CN3CCc4c([nH]c5ccccc45)C(C(=O)OC)(C2)C13 (stereo partly drawn)	nt	-4	-2	0.1	nt	nt	nt	46	nt	-1.7
CCCCCCC(=O)c1c(O)n(-c2ccc(OC)cc2)c(=O)[nH]c1=O (tested in a mixture with another compound)	-3.2	-1	16	0.5	-20*	-9.6*	-1.2*	-21	-7%	2.4
CCCCCCn1c(O)c(C=Nc2c(C)n(C)n(-c3ccccc3)c2=O)c(=O)[nH]c1=O	nt	-4	-9	0.0	nt	nt	nt	-12	5%&-7%	1.7
CC[C@@H](C(N)=O)N1CCCC1=O	nt	-1	nt	-0.3	nt	nt	nt	-16	-3%	?
CCC(=NCCc1ccccc1)c1c(O)n(C2CCCCC2)c(=O)[nH]c1=O	nt	-4	8	0.8	nt	nt	nt	17	2%	-0.6
c1ccc(CC2CCCCN2)cc1 (stereo not drawn)	-3.2	-5	-3	-0.1	1	5	-1.7	6	nt	-1.1
CC1=CC(=C2C(=O)NC(=O)NC2=O)C=C(C(F)(F)F)N1C(C)C	nt	-1	-3	-0.1	nt	nt	nt	-22	0%	0.1
CCCNC(=O)N1[C@H]2CC[C@@H]1C(C(=O)OC)=C(c1ccccc1)C2	-11	-5	-4	0.1	15	14	0.2	-10	nt	-3.7
Cc1ccc(-c2nc3ccccc3c(=O)n2-c2cccc(C)n2)cc1	1.6	14	1	-0.3	6	19	-1.6	1	-2%	4.9
O=C(c1cc(F)ccc1F)C1CCCN(CCCc2ccccc2)C1 (stereo not drawn)	3.5	0	-3	0.2	5	-9	1.6	25	-5%	-2.1
O=C1NC(=O)N(c2ccc3c(c2)OCO3)C(=O)/C1=C/c1ccsc1	-2.5	7	1	0.1	14	2	-2.5	-22	18%	-2.3
COC(=O)C1=C(c2ccccc2OCc2ccccc2)C[C@@H]2CC[C@H]1N2C(=O)NCc1ccc(C(F)(F)F)cc1	3.1	nt	0	0.0	12	-3	1.6	nt	nt	nt
O=C(c1ccc(-c2ccccc2)c(F)c1)C1CCCN(CCO)C1 (stereo not drawn)	-0.5	-8	-6	0.4	0	12	3.6	-7	6%	8.2
O=C(Cc1ccccc1)N1CCN(Cc2ccccn2)CC1	nt	0	-9	-0.8	10	11	4.7	5	17%	-2.6
O=c1c2ccccc2nc(SCC2CCCCO2)n1-c1ccccc1 (stereo not drawn)	nt	2	-1	0.1	nt	nt	nt	30	-3%	-0.2
COc1ccc(-n2c(/C=C/c3ccc4c(c3)OCO4)nc3ccccc3c2=O)cc1	3.8	2	0	-0.3	-14	2	4.8	-7	nt	4.4
CCN1CCN(C(=O)COc2cc(=O)n(CC)c3ccccc23)CC1	nt	-7	0	-0.2	nt	nt	nt	-6	7%	11
COc1ccc(C2SCC(=O)Nc3c2c(C)nn3-c2ccccc2)cc1 (stereo not drawn)	nt	-1	nt	1.0	nt	nt	nt	-1	10%	0.0
COc1ccc(Cl)cc1C(=O)C1CCCN(CCO)C1 (stereo not drawn)	2.8	-7	-3	1.5	8	2	4.3	18	0%	-1.4
O=[N+]([O-])c1cccc(CN2CCN(Cc3ccc(Cl)cc3)CC2)c1	18	-34	14	0.0	11	3	2.1	27	2%	1.4
Cc1ccsc1C(=O)C1CCCN(Cc2cnn(C(C)C)c2)C1 (stereo not drawn)	-1.0	-10	-3	1.4	13	7	0.1	66*	25%	4.9
O=c1[nH]c(=O)n(CCc2ccccc2)c(O)c1/C=N/N1CCOCC1	nt	19	3	0.2	6	7	3.6	-24	nt	-0.2
CCC(=NCC1CCCO1)c1c(O)n(Cc2ccccc2)c(=O)[nH]c1=O (stereo not drawn)	nt	-2	-3	-0.2	nt	nt	nt	-6	12%	-1.2
CC1=Nc2cc(C(=O)N3CCC4(CC3)OCCO4)ccc2Sc2ccc(Cl)cc21	4.9	3	1	0.5	-5	-10	-1.7	-1	nt	-5.6
CCN1CCN(c2nc([N+](=O)[O-])nn2C)CC1	-1.3	0	-9	0.5	2	2	-3.9	50	nt	4.8
CC(C)c1ccc(-n2c(O)c(/C=N/NC(=O)c3ccccc3O)c(=O)[nH]c2=S)cc1	15	-7	-6	-0.2	-16	-13	4.9	5	?	3.1
Cc1nc(CCl)cc(=O)[nH]1	-1.7	22	6	0.3	8	5	0.4	-1	-3%	3.1
O=C(C1CC(=O)N(c2ccc(F)c(Cl)c2)C1)N1CCC2(CC1)OCCO2 (stereo not drawn)	nt	-1	-1	0.2	nt	nt	nt	-6	1%	-1.0
COc1ccc(C2C([N+](=O)[O-])=C(N)Oc3c2c(=O)oc2ccccc32)cc1 (stereo not drawn)	nt	13	-3	0.3	nt	nt	nt	-10	nt	-0.5
CS(=O)(=O)N1CCN(C(=N)N[N+](=O)[O-])CC1	0.1	-2	-4	0.5	22	9	3.2	-12	4%	1.8
CN1CCCC(C(O)(c2ccccc2)c2ccccc2)C1 (stereo not drawn)	nt	-5	nt	0.1	16	9	0.5	-9	0%	-2.5
Cc1ccc(N2C(=O)NC(=O)/C(=C\c3ccc(N4CCOCC4)cc3)C2=O)cc1	nt	-8	0	1.3	nt	nt	nt	-30	7%	-1.0
CCOC(=O)c1c(C)n(CC(O)CN2CCOCC2)c2cc(Br)c(OC)cc12 (stereo not drawn)	3.1	-4	1	-0.1	-42*	30*	-3.4*	-1	-8%	4.8
O=C1CCN(C(=O)CCCn2c(=O)oc3ccccc32)CC1	-0.9	-13	1	0.5	16	7	0.9	-11	4%	-4.1
Cc1nc2cc(F)ccc2n1C1CCN(Cc2nnnn2CCc2ccccc2)CC1	nt	37	0	0.0	nt	nt	nt	0	68%	-0.5
O=c1[nH]c(=O)n(-c2ccccc2)c(O)c1/C=C1/C(c2ccccc2)=Nc2ccccc21	nt	-14	8	1.5	nt	nt	nt	7	13%	-3.2
O=C1NC(=O)C(=Cc2csc3ccccc23)C(=O)N1	-2.1	-1	-7	0.7	16	6	5.0	-9	6%	-2.0
NP(=O)(OCCCc1ccccc1)Oc1ccccc1 (stereo not drawn)	-14	-11	4	-1.5	4	1	20	0	nt	-1.0
CCN1CCN(C(c2cccs2)C(C)NC(=O)Oc2ccccc2)CC1 (stereo not drawn)	-4.4	-6	-5	-0.2	8	9	2.1	-25	nt	5.0
CCOc1ccccc1Oc1coc2cc(OC(=O)N(C)C)ccc2c1=O	0.0	-17	-7	-2.0	1	13	3.6	8	-3%	1.0
CCC1(C)CN(S(=O)(=O)OCC(Cl)(Cl)Cl)C(=O)N1 (stereo not drawn)	1.8	-21	-6	0.6	6	7	4.3	-19	nt	1.1
COP(=O)(OC)C1(O)C(=O)Nc2ccc(Br)cc21 (stereo not drawn)	nt	-12	nt	-1.0	nt	nt	nt	-14	?	0.9
COC(=O)C1=C(c2ccccc2OCc2ccccc2)C[C@@H]2CC[C@H]1N2C(=O)NCCCOC(C)C	0.8	nt	-5	-1.0	-21	-35	-6.9	nt	nt	nt
COc1ccc(N=Cc2c(O)n(C)c(=O)n(C)c2=O)cc1	-2.2	-1	-1	-2.2	9	3	-3.9	-11	0%	0.4
CCOCN(C(=O)CCl)c1c(C)cccc1CC	-0.9	11	6	?	12	15	-2.6	53	-1%	-2.7
CN(C)C(=O)Oc1cccc(NC(=O)N2CCOCC2)c1	nt	-15	-1	-1.2	nt	nt	nt	-9	nt	1.5
CCOC(=O)C(O)(c1ccc(N(CC)S(=O)(=O)c2ccc(C)cc2)cc1)C(F)(F)F (stereo not drawn)	nt	0	-9	-1.4	nt	nt	nt	17	1%&0%	3.0
CCOC(=O)c1cc2c(cn1)[nH]c1ccccc12	1.5	-4	0	-0.7	nt	nt	nt	-12	24%	?
CN(CCOc1ccc(C=C2C(=O)NC(=O)NC2=O)cc1)c1ccccn1	-2.0	-33	-2	-2.7	8	15	0.0	-6	12%	-0.5
CCN1CCN(Cc2cc(OC)c(OC)cc2[N+](=O)[O-])CC1	0.0	2	2	0.7	23	23	-7.4	0	7%	0.2
C=CCn1c(O)c(/C(C)=N/N2CCCCCC2)c(=O)[nH]c1=O	-2.9	-6	nt	0.6	-6	-7	-0.8	7	?	?
Cc1cccc(-c2nc3ccccc3c(=O)n2-n2cccc2)c1	nt	-1	-2	-0.1	nt	nt	nt	3	15%	2.3
O=C(CF)NC(NC(=S)Nc1ccccc1O)C(Cl)(Cl)Cl (stereo not drawn)	-0.4	-6	-6	-0.2	-7	-11	1.2	-8	26%	4.6
CCOC(=O)C1=Nc2ccccc2/C1=C\c1c(O)n(C)c(=O)n(C)c1=O	-2.6	-3	-10	-0.1	5	2	62	-11	4%	0.1
CC(=O)c1c(C)[nH]c(C(=O)N2CCC3(CC2)OCCO3)c1C	nt	2	-8	-1.7	nt	nt	nt	4	11%	-0.1
COC(=O)C1=C(c2ccc(F)cc2OCc2ccccc2)C[C@@H]2CC[C@H]1N2C(=O)NCCOc1ccccc1	-0.5	nt	2	1.6	14	12	-0.3	nt	nt	nt
CC/C(=N\N1CCCCC1)c1c(O)[nH]c(=O)[nH]c1=O	-1.8	-1	-2	-0.6	11	7	-0.7	-9	25%	0.8
COCCNC(=O)CN1C(=O)CN=C(c2ccccc2)c2ccccc21	-25	-13	2	0.7	3	6	-3.4	-11	nt	?
COc1ccc(-n2c(SCCN(C)C)nc3ccccc3c2=O)cc1	5.9	-4	-8	-0.1	5	-5	-2.4	14	14%	-1.6

(continued)
SMILES	MLL AF4-AF9 inh	Calb FLC	Beta apoptosis	A1 inh	Ecoli rRNA inh	Ecoli rRNA inh OD600	Ecoli rRNA inh RFP	T cruzi repl	Vif A3G	RanGTP-Imp inh
CC(=Nc1ccccc1N)c1c(O)n(C)c(=O)n(C)c1=O	-2.6	-6	2	0.8	7	3	0.4	0	nt	-3.9
CCOc1ccc(-n2c(O)c(C=NCCCn3ccnc3)c(=O)[nH]c2=O)cc1	nt	2	-2	1.5	nt	nt	nt	-8	?	-2.8
CCCCCn1c(=O)c(C(=O)Nc2cc(C)ccn2)c(O)c2ccccc21	-0.8	4	-3	0.3	3	10	0.0	0	14%	?
CCOC(=O)CCN=Cc1c(O)n(-c2ccc(Br)cc2)c(=O)[nH]c1=O	nt	-7	3	0.2	nt	nt	nt	-16	0%	8.6
CN1CCN(c2c(C#N)c(C(F)(F)F)nn2C)CC1	-12	-8	-1	-0.2	7	15	2.7	-17	4%	?
